# Screening data (PubChem BioAssay)
# NPYLR7 ag = activates Aedes aegypti NPYLR7 receptor | HEK293T NPYLR7/Galpha15, GCaMP6s calcium fluorescence | activation, % at 10 µM | 270,000 compounds, 0.15% hits; in the data active = activation above about 40%;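 note: 0% = vehicle and 100% = reference agonist at the receptor; some compounds past the cut are filed as inactive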
# NPYLR7 ag max-min = also measured in NPYLR7 ag; calls as there; activation, %; measured here: Max-Min RFU normalised activation; some inactives read as strong as hits;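 span of the calcium signal over five minutes; 0% = vehicle and 100% = native peptide agonist; compound fluorescence can raise it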
# An asterisk follows results filed as active; & = joins results of further samples. Some of the compounds tested. The share of hits here may be higher or lower than overall.
# A first look, 2 compounds:
# Order of values – NPYLR7 ag | NPYLR7 ag max-min
Cc1ccc(C)c(Cn2nnc(C(=O)Nc3cccc(C)c3C)c2N)c1
    -0.3 | 6.5
Cc1cccc(CN2CCCC(CNS(=O)(=O)c3cccc4cccnc34)C2)n1 (stereo not drawn)
    11.6 | 5.1

# The whole of this part, from the start:
# Order of values – NPYLR7 ag | NPYLR7 ag max-min
Cc1ccc(C)c(Cn2nnc(C(=O)Nc3cccc(C)c3C)c2N)c1
    -0.3 | 6.5
Cc1cccc(CN2CCCC(CNS(=O)(=O)c3cccc4cccnc34)C2)n1 (stereo not drawn)
    11.6 | 5.1
Cn1c(-c2nc3ccccc3[nH]c2=O)nc2ccccc21
    -1.0 | -2.4
CCc1cnc(NCc2cccnc2N2CCN(c3ccccc3OC)CC2)nc1
    13.9 | 25.8
O=C(CN1CCN(c2nccs2)CC1)Nc1cccc(Cl)c1Cl
    12.2 | 13.1
CCC(C(=O)N1CCn2c(nnc2C(=O)NC(C)C)C1)c1ccccc1 (stereo not drawn)
    2.1 | 0.7
c1sc2c(c1CN1CCOCC1)CCCC2
    2.5 | 0.3
O=C(Cc1csc(N2CCNC2=O)n1)N1CCC2CCCCC2C1 (stereo not drawn)
    16.9 | 8.0
O=C(c1cc(-c2ccccc2)nc2ccccc12)N1CCC(O)(C(F)(F)F)C1 (stereo not drawn)
    -1.8 | 0.2
Cc1ccccc1CSc1nnc(C(C)NC(=O)COc2ccc(Cl)cc2)n1-c1ccc(Cl)cc1Cl (stereo not drawn)
    15.8 | 15.4
O=C(COCc1ccccc1)N1CCN(C2c3ccccc3CCc3ccccc32)CC1
    -4.2 | -3.0
c1cncc(COC2CCN(Cc3ccnc4ccccc34)CC2)c1
    11.2 | 5.8
COc1cccc(Cc2nc3c(c(N4CCOCC4)n2)CN(S(=O)(=O)c2ccc([N+](=O)[O-])cc2)CC3)c1
    2.7 | 4.6
CCOCCCNC(=O)CSc1nc2sc3c(c2c(=O)[nH]1)CCCC3
    10.5 | 6.2
Cc1ccncc1C(=O)N1CCNCC1C(=O)N1CCCC1 (stereo not drawn)
    11.1 | 9.6
COc1ccc(-n2c(SCC(=O)O)nc3c([nH]c4ccccc43)c2=O)cc1OC
    -7.0 | -2.5
Clc1ccc(-c2nc3cnccn3c2NC2CCCC2)cc1
    6.0 | 3.0
Cc1cc(C)c(NC(=O)C(C)N2C(=O)c3ccccc3S2(=O)=O)c(C)c1 (stereo not drawn)
    11.1 | 5.9
Cc1nnsc1C(=O)NCCn1ncc2c(N3CCCCC3)ncnc21
    3.5 | 1.9
Cc1ccc(Nc2ccccc2NS(=O)(=O)N(C)C)cc1
    12.9 | 8.9
O=c1cccnn1CCNS(=O)(=O)/C=C\c1ccccc1
    1.2 | -0.8
Cc1ccccc1C(=O)O/N=C1/C(=O)c2ccccc2-c2ccccc21
    3.0 | 1.0
CCCCc1nc(C)c(C(=O)N2CCN(Cc3ccc4c(c3)OCCO4)CC2)s1
    -1.7 | -2.9
CN(Cc1nccs1)C(=O)c1cc(CN2CCCC(O)C2)on1 (stereo not drawn)
    0.6 | -1.7
CCC1CSC(=NCCOC)N1Cc1ccc(Cl)cc1Cl (stereo not drawn)
    10.9 | 7.2
CC(C)(C)c1nccc(N2CCCC3(CNC(=O)C3)C2)n1 (stereo not drawn)
    -24.6&5.5 | -23.6&2.8
O=C(CC1CC2CCC1C2)Nc1nc(-c2cccnc2)cs1 (stereo not drawn)
    3.6 | -0.1
COCCCN(Cc1ccc(C(=O)OC)o1)Cc1cccs1
    -7.0 | -2.0
CC(SCc1cccc(F)c1)C(=O)Nc1ccccc1F (stereo not drawn)
    -2.3 | -2.8
Cn1c(=O)oc2cc(S(=O)(=O)NC3CCCC3)ccc21
    8.7 | 8.4
CN(C)C(CNC(=O)c1cccc2ccccc12)c1ccccc1 (stereo not drawn)
    0.4 | -1.3
CCOC(=O)/C(C#N)=C1/C=CN(Cc2ccccc2)C=N1
    -8.3 | -14.5
Cc1cc(C(=O)N(CCCN2CCOCC2)c2nc3c(C)ccc(Cl)c3s2)on1
    1.8 | 5.5
N#CCCNC(=O)c1cc(-c2ccc3c(c2)OCO3)nc2ccccc12
    14.4 | 5.4
O=c1[nH]nc(Cc2ccncc2)n1Cc1ccccc1F
    3.2 | 0.3
CC(C)c1nccn1CCCNC(=O)c1ccc(-c2ccc3cc[nH]c3c2)nc1
    5.0 | 2.5
CCOc1ccccc1CN(C(=O)c1cc(C2CC2)[nH]n1)C1CC1
    1.3 | -0.3
Cc1noc(C(C)NC(=O)c2cccnc2SC/C=C/c2ccccc2)n1 (stereo not drawn)
    -2.5 | -7.3
Cc1noc(C)c1CNC(=O)CSC(C)c1ccc(F)cc1 (stereo not drawn)
    6.2 | 3.3
CCOC(=O)[C@@H]1CN(C(=O)c2cc(C)oc2C)[C@H]2c3cccc(F)c3O[C@@H]12
    -0.6 | 12.6
C=C1C2OC(OC(=O)CC(C)C)C3C1CC(OC(C)=O)C3(CCl)O2 (stereo not drawn)
    -8.8 | -10.9
COc1ccc(O)c(C2=NCCN=C(C(F)(F)C(F)F)C2)c1
    10.9 | 4.7
COc1ccc(C(=O)Oc2cccc3cccnc23)cc1[N+](=O)[O-]
    -8.4 | -11.8
CCN(CC)C(=O)c1ccc(Cl)c(NC(=O)COc2ccccc2O)c1
    -8.9 | -12.4
O=C(NC1C=CS(=O)(=O)C1)c1cn[nH]c1-c1cccc(F)c1 (stereo not drawn)
    -0.8 | -2.0
O=C(CC1CC2CCC1C2)N1CCN(Cc2ccc3c(c2)OCO3)CC1 (stereo not drawn)
    5.5 | 2.7
COc1cccc(NC(=O)N(CC(=O)Nc2cc(C(C)(C)C)nn2-c2ccc(C)cc2C)Cc2ccco2)c1
    7.1 | 11.4
COc1ccc(CCN(C)C2CCCN(c3ncnc4[nH]ccc34)C2)cc1OC (stereo not drawn)
    16.8 | 8.0
COc1cc(C(=O)Nc2ccc(-c3onc4c3CCCC4)cc2)cc(Cl)n1
    3.0 | -1.5
COCCCN(Cc1cccn1Cc1cccc(C(F)(F)F)c1)C(=O)Nc1ccccc1C(F)(F)F
    -1.1 | 11.2
O=C(CC1CC2CCC1C2)NCCc1cc(F)cc(F)c1 (stereo not drawn)
    11.9 | 9.4
COc1ccc(S(=O)(=O)Nc2cc(-c3cn4nc(OC)ccc4n3)ccc2OC)cc1
    -6.1 | -12.3
Cc1oc(C)c(C(=O)O)c1C
    2.6 | 2.3
Cc1csc(N2CCCC2)n1
    -4.1 | 0.7
CCOC(=O)N1CCN(c2nc(Nc3ccc(C)cc3C)c3nccnc3n2)CC1
    2.8 | 0.0
CCCS(=O)(=O)NCC(C)CC(C)O (stereo not drawn)
    0.2 | -4.0
O=C(c1ccc(CSc2ccc(C(F)(F)F)cn2)cc1)N1C2CCC1CC(Oc1cccc(C(F)(F)F)c1)C2 (stereo not drawn)
    11.2 | -2.4
CNC(=O)CSc1nnc(N2CCN(C(=O)c3cc4ccccc4oc3=O)CC2)s1
    -12.7 | -11.7
Cc1cccc2oc(CNC(=O)C(c3cccc(F)c3)N(C)C)nc12 (stereo not drawn)
    -4.1 | -11.4
CCCCCCCCN=Cc1sc(=S)[nH]c1O
    3.7 | 1.5

# Reprinted at random: seven records from the list.
# Order of values – NPYLR7 ag | NPYLR7 ag max-min
CC(C)(C)c1nccc(N2CCCC3(CNC(=O)C3)C2)n1 (stereo not drawn)
    -24.6&5.5 | -23.6&2.8
O=c1cccnn1CCNS(=O)(=O)/C=C\c1ccccc1
    1.2 | -0.8
CCOCCCNC(=O)CSc1nc2sc3c(c2c(=O)[nH]1)CCCC3
    10.5 | 6.2
C=C1C2OC(OC(=O)CC(C)C)C3C1CC(OC(C)=O)C3(CCl)O2 (stereo not drawn)
    -8.8 | -10.9
O=c1[nH]nc(Cc2ccncc2)n1Cc1ccccc1F
    3.2 | 0.3
CCCS(=O)(=O)NCC(C)CC(C)O (stereo not drawn)
    0.2 | -4.0
CC(C)c1nccn1CCCNC(=O)c1ccc(-c2ccc3cc[nH]c3c2)nc1
    5.0 | 2.5

# Remaining list, next part.
# Order of values – NPYLR7 ag | NPYLR7 ag max-min
Cc1ccc(C)c(-c2cc(C(=O)NCCC(=O)NCc3ccc(F)cc3)no2)c1
    5.4 | 3.3
Cc1nnc(C2CCCN(C(=O)C(C)(C)C)C2)s1 (stereo not drawn)
    -5.2 | -0.6
Cc1[nH]n(-c2ccccc2)c(=O)c1N=Nc1ccc(C(N)=O)cc1
    -5.8 | -9.5
Cc1cc(-c2nnc(NC(=O)CCS(=O)(=O)c3ccc(F)cc3)o2)nn1C
    -7.9 | -14.2
O=C(O)[C@H]1C[C@@H](O)CCN1Cc1cccc(O)c1
    0.6 | -7.3
COc1ccccc1-c1onc(C)c1C(=O)NCCc1ccncc1
    11.5 | 15.5
O=C(c1ccc(-c2ccn[nH]2)cc1)N1CCCC(CCc2ccc(F)cc2F)C1 (stereo not drawn)
    9.6 | 8.9
COc1ccc2nc(-c3cccc(NC(=O)c4cc(C)cc(C)c4)c3)cn2n1
    -3.9 | -9.6
CCN(CC)c1cccc(OCC2CN(C(=O)COc3cccc(C)c3C)CCO2)c1 (stereo not drawn)
    -5.8 | -0.3
Nc1nc(SCc2ccc([N+](=O)[O-])cc2)[nH]c(=O)c1NC(=O)c1ccc(Cl)cc1
    -3.9 | -3.4
CN1CCC(Cc2noc(-c3cnn(Cc4ccccc4)c3)n2)CC1
    4.1 | 2.8
O=C(OCCN1CCN(S(=O)(=O)c2ccccc2)CC1)c1ccc(Cl)cc1
    7.5 | 4.7
CN1CCCC(CCNC(=O)Cn2[nH]c(=O)ccc2=O)C1 (stereo not drawn)
    -3.0 | -5.9
Cc1ccccc1CC1(CO)CCCN(Cc2ccccn2)C1 (stereo not drawn)
    3.8 | 4.1
Nc1ccc(N2CCCC2)c(C(=O)NCCCN2CCOCC2)c1
    6.5 | 6.9
CCCCn1c(SCC(=O)NCC2CCCO2)nc2c(-c3ccccc3)c[nH]c2c1=O (stereo not drawn)
    3.4 | -2.3
Cc1cc(=O)oc2cc(Oc3nnc(-c4ccc(F)cc4)c4ccccc34)ccc12
    -2.6 | 6.6
Fc1ccc(CN2CCC(Cc3ccc(-c4ccccc4)cc3)CC2)cc1C(F)(F)F
    3.1 | 11.1
Cc1ccc(-c2[nH]ncc2CNCc2cccc(OC(F)(F)F)c2)cc1C
    21.2 | 14.5
Cc1oc(-c2cccc(Cl)c2)nc1CN1CCC(=O)NCC1C (stereo not drawn)
    1.4 | -4.4
CC(C)(C)OC(=O)NCC1CCCN(C(=O)Cc2ccc(O)cc2Cl)C1 (stereo not drawn)
    2.3 | -1.3
COCCOC(=O)N1C[C@H](Oc2ccccn2)[C@H]2C[C@@H]1CC[C@H]2O
    27.7 | 36.9
CCCCC(O)CN(Cc1ccccc1)Cc1c(-c2ccccc2)nn(C)c1Oc1ccc(C)cc1 (stereo not drawn)
    -3.5 | -3.0
COCOc1ccc(-c2ncc(OCCN3CCCC3=O)nc2NC(=O)c2cc3ccccc3s2)cc1
    0.6 | -11.4
CN(CC(=O)Nc1cccc([N+](=O)[O-])c1)S(=O)(=O)c1ccc(F)cc1
    -6.6 | -8.3
Cc1nc(-c2ccc(S(=O)(=O)NCCc3cccnc3)cc2)co1
    4.2 | 4.8
COc1ccc2c(c1)CCc1c(-c3ccc(C(=O)NCc4ccsc4)cc3)n[nH]c1-2
    8.3 | 8.2
Cc1nc2c(-c3ccccc3)cnn2c(Cl)c1C
    -1.9 | -4.5
CCOC1CC(NC(=O)NC2CCN(C3CC3)CC2)C12CCCC2 (stereo not drawn)
    1.6 | 1.7
COc1cccc(CSc2nnc(CNC(=O)Nc3ccc([N+](=O)[O-])cc3)n2-c2ccc(C)cc2)c1
    -2.2 | 4.6
COCC(=O)N1CCN2C(=O)c3cc(-c4ccccc4F)ccc3NC(=O)[C@H]2C1
    -6.3 | -13.8
CCOC(=O)c1c(C)sc2c1N(C(=O)CN1CCOCC1)c1cc(Cl)ccc1S2
    4.3 | 4.3
CN(C)C(=O)c1nn(Cc2ccccc2)c2c1CN(C(=O)Cc1ccc3c(c1)OCO3)CC2
    15.7 | 11.3
C=CCOc1ccc(C2CC(=O)Nc3n[nH]c(C(=O)NC)c32)cc1CC=C (stereo not drawn)
    7.2 | 3.9
COc1cccc(NC(=O)N2CCN(c3nc(CCc4ccccc4)nc4sc(C)c(C)c34)CC2)c1
    -7.9 | 4.1
Cc1noc(C)c1CCC(=O)NCc1cccnc1N1CCOCC1
    13.1 | 7.8
OCCN1CCC(CNCCc2c(F)cccc2Cl)CC1
    -0.5 | -4.1
O=C(c1ccc2c(c1)OCCO2)N1CCC(n2cc(CCO)nn2)CC1
    -0.4 | -1.8
COc1cc(C(C)=O)ccc1OCC(O)CN1CCCC(C(F)(F)F)C1 (stereo not drawn)
    -0.8 | -1.0
COc1ccccc1-c1nc2cc(C)ccn2c1NC(=O)c1c(OC)cccc1OC
    -3.9 | -4.3
COc1ccccc1-c1noc2nc(N(C)Cc3ccccc3)ccc12
    1.8 | -0.8
CCCn1cc(C(=O)NC2CCCN(c3nc4ccccc4s3)C2)c(C)n1 (stereo not drawn)
    24.9 | 15.2
N#CCn1c(C[n+]2ccccc2)nc2ccccc2c1=O
    4.0 | 10.9
COc1ccccc1CNC(=O)C1(S(=O)(=O)c2ccc(Cl)cc2)CCCC1
    3.6 | 1.5
CCOC(=O)c1sc(C)nc1C
    4.3 | 6.4
CC(NC(=O)c1ccc(C(C)(C)C)cc1)C(=O)C(C#N)C(=O)Nc1ccccn1 (stereo not drawn)
    -1.2 | 2.3
Cn1nnc2c(SCc3ccc(F)cc3)ncnc21
    0.7 | 8.1
NC(=O)NC(=O)CSc1ncnc2sc3c(c12)CCC3
    6.7 | 8.1
O=C(NCc1ccco1)NN=C1c2ccccc2-c2ccccc21
    3.4 | 1.5
CC(Sc1nnc2n1CCCCC2)c1nnc(-c2ccc([N+](=O)[O-])cc2)o1 (stereo not drawn)
    -2.6 | 9.8
CCC1(CC)NC(=O)N(CC(=O)Nc2ccccc2C#N)C1=O
    13.6 | 2.9
